PrP UTR inh: inhibition of PrP 5' UTR reporter expression; inhibition, % (test concentration not listed); actives 0.35% (n = 340,000); cell-based PrP 5' UTR mRNA reporter, plate reader; AID 488862;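 active means every replicate at 50% or more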;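 further: 0 = median of the neutral control wells; tested in H4 reporter cells; numbers are from one replicate; inactives centre near -14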
ugtP null kill: kills S. aureus RN4220 lacking UgtP. AID 1259309. growth inhibition, % (concentration not given with the values). actives 0.54% (n = 330,000). S. aureus RN4220 ugtP deletion, OD600 growth, 16 h; some inactives read as strong as hits;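 active means z-score under -3 and OD600 up to 0.15 on both plates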;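 further: plate controls were untreated wells for no effect and antibiotic for full effect; wells of about 80 µL received 100 nL stock; the first replicate is given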
BJeLR lethal: BJeLR cell viability loss; BJeLR (HRASV12) viability, CellTiter-Glo ATP luminescence, 48 h; reference of the scale not given here; inhibition, % (no concentration beside the values); actives 0.17% (n = 300,000);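 active means replicate mean above 50%; inconclusive means above 50% but judged a plate artefact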;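 further: 50 nL library stock added to about 25 µL; numbers are from one replicate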
Autofluor counter: flagged as autofluorescent in microsphere protease counterscreen; compound autofluorescence counterscreen, microsphere flow cytometry; stronger effect = higher value; fluorescence intensity (no concentration beside the values); actives 3.1% (n = 360,000); AID 624483;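 active means at least 3 SD above the mean of all compounds, about 16000 in these data; inconclusive means too few beads counted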;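 further: 100 nL of 1 mM stock went into each well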
Mtb hypoxia inh: reduces hypoxia-regulated biosensor signal in M. tuberculosis; actives 0.1% (n = 300,000); fluorescence inhibition, % (test concentration not listed); M. tuberculosis hypoxia-regulated fluorescent reporter, fluorescence;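 active means 35 to 45% if threefold the growth effect, above 45% if 1.5-fold the growth effect; inactive means the rest, general growth blockers included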;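 further: wells of about 50 µL received 100 nL stock; 0% = vehicle wells and 100% = reference inhibitor wells; whole bacteria with a GFP reporter of the hypoxia response; strong numbers were not always called active; many hits fall short of the cut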
Sa RN4220 lethal: S. aureus RN4220 growth inhibition. OD600, 16 h. inhibition, % (concentration not given with the values). actives 0.33% (n = 330,000). AID 1259311;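 active means z-score of -3 or lower and OD600 up to 0.18 on both plates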;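 further: plate controls were untreated cells for no effect and reference antibiotic for full effect; stock transfer was 100 nL into about 80 µL; one replicate is shown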
Mtb hypoxia inh growth: further read-out of Mtb hypoxia inh, marked with its call; growth inhibition, %; measured here: M. tuberculosis growth (absorbance);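 0% = vehicle and 100% = reference antibiotic; read after six days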
The depositor's hits bear a star; u = inconclusive; x = no result given; & = joins results of further samples.

SMILES | PrP UTR inh | ugtP null kill | BJeLR lethal | Autofluor counter | Mtb hypoxia inh | Mtb hypoxia inh growth | Sa RN4220 lethal
O=C(Nc1ccc(F)cc1)C1CCCN(S(=O)(=O)c2cccc3nonc23)C1 (configuration not stated) | -10 | -5 | -5 | 5890 | -12 | 2 | -2.7
O=C(O)CC(C(=O)O)N1C(=O)/C(=C/c2ccc(-c3nc4ccccc4s3)o2)SC1=S (configuration not stated) | -19 | -11 | -1 | 2961 | 19 | 11 | -1.1
CN(C)C(=O)c1cccn1-c1ncc(C(F)(F)F)cc1Cl | -16 | 4 | -2 | 5017 | 11 | 5 | 3.8
Cn1c(SCn2nnc3ccccc3c2=O)nc2ccccc2c1=O | x | 19 | -8 | x | 3 | 19 | 2.9
O=C(Nc1nnc(S(=O)(=O)N2CCOCC2)s1)c1cccc(F)c1 | -23 | -2 | -1 | 6564 | 13 | 14 | -6.5
COc1cccc2cc(C(=O)C3=C(O)C(=O)N(CCN4CCOCC4)C3c3cccc(Cl)c3)oc12 (configuration not stated) | 8 | 4 | 11 | 3794 | -12 | -13 | 6.0
CC(=O)N1CCc2cc(S(=O)(=O)NCCC(=O)N3CCc4ccccc4C3)ccc21 | 14 | 10 | 1 | u | 8 | -2 | 4.5
O=C(Nc1ccc2c(c1)OCO2)C1CCN(C(=O)c2cccs2)CC1 | -8 | 8 | -3 | 5971 | x | x | -3.9
Cc1ccc(S(=O)(=O)N2CCC(C(=O)OCC(=O)N(CC(C)C)C3CCS(=O)(=O)C3)CC2)cc1C (configuration not stated) | -7 | 2 | 6 | x | -3 | -8 | 4.0
CN(C)CC(C)(C)CNc1ccc(S(=O)(=O)N2CCCC2)cn1 | -21 | 3 | x | 3659 | 4 | 7 | -0.1
CCOc1cccc(C(=O)Nc2nccs2)c1 | -35 | -1 | 6 | 4786 | x | x | 1.1
CCN(c1ccccc1)S(=O)(=O)c1ccc(C(=O)Nc2ncccc2C)cc1 | -20 | 5 | 2 | 4593 | 4 | -2 | 8.6
Cc1cccc(-n2c(Cc3cc(=O)[nH]c(=O)[nH]3)nnc2SCC(=O)N2CCc3ccccc32)c1 | -14 | 10 | 5 | u | 12 | 4 | -3.5
O=C(CCS(=O)(=O)Cc1ccccc1)Nc1nncs1 | 2 | -3 | -3 | 3147 | -1 | -1 | -0.1
CCCOc1ccc(C2c3c(oc4ccccc4c3=O)C(=O)N2CCCN2CCOCC2)cc1 (configuration not stated) | -14 | 4 | -13 | 6123 | 2 | 11 | 1.2
CCCCCn1c(SCC(=O)CC(=O)OCC)nc2cc(C(=O)N3CCC(C(N)=O)CC3)ccc2c1=O | -11 | 6 | -5 | 4266 | 8 | 17 | 11
O=S(=O)(Cc1ccccc1)C1CCCCC1O (configuration not stated) | -27 | 12 | 4 | 5620 | 18 | 3 | 4.3
O=C(NN=Cc1ccccc1Cl)c1ccc([N+](=O)[O-])cc1 | -4 | 0 | x | 3569 | 9 | 11 | 7.7
COc1ccccc1CNS(=O)(=O)N(C)C | -3 | 3 | 5 | 4012 | -6 | 2 | 0.5
O=C(C[n+]1ccc(Cc2ccccc2)cc1)Nc1ccccc1 | -19 | 7 | 4 | 4273 | 14 | 7 | 3.4
Cc1nnc2ccc(N3CCCC3)nn12 | -12 | -2 | 0 | 4256 | -3 | 0 | -1.2
CC(C)n1cnnc1SCC(=O)Nc1cccnc1Cl | -12 | 1 | x | 2935 | 24 | 36 | 2.8
CCOC(=O)/C(C(N)=NC)=C(\O)c1ccccc1 | -5 | 3 | -10 | 2625 | x | x | 1.7
COc1cccc2cc(C(C)N(CCCN3CCOCC3)C(=S)Nc3ccc(C)c(C)c3)oc12 (configuration not stated) | -11 | 6 | -1 | 4320 | 8 | 2 | 0.1
CC(C)(C)n1cnc2cc(NCc3ccccc3O)ccc21 | -40 | 3 | 2 | 3458 | 3 | 0 | 4.1

Of the compounds above, 4 have an aryl thioether with sulfur outside any ring:
SMILES | PrP UTR inh | ugtP null kill | BJeLR lethal | Autofluor counter | Mtb hypoxia inh | Mtb hypoxia inh growth | Sa RN4220 lethal
Cn1c(SCn2nnc3ccccc3c2=O)nc2ccccc2c1=O | x | 19 | -8 | x | 3 | 19 | 2.9
Cc1cccc(-n2c(Cc3cc(=O)[nH]c(=O)[nH]3)nnc2SCC(=O)N2CCc3ccccc32)c1 | -14 | 10 | 5 | u | 12 | 4 | -3.5
CCCCCn1c(SCC(=O)CC(=O)OCC)nc2cc(C(=O)N3CCC(C(N)=O)CC3)ccc2c1=O | -11 | 6 | -5 | 4266 | 8 | 17 | 11
CC(C)n1cnnc1SCC(=O)Nc1cccnc1Cl | -12 | 1 | x | 2935 | 24 | 36 | 2.8

Continued:
SMILES | PrP UTR inh | ugtP null kill | BJeLR lethal | Autofluor counter | Mtb hypoxia inh | Mtb hypoxia inh growth | Sa RN4220 lethal
COc1ccc(OC)c(-c2cc(C(=O)Nc3c(C)nn(Cc4ccccc4)c3C)no2)c1 | 5 | 9 | 6 | 11097 | -3 | -1 | 9.6
Cc1oc(C(C)(C)C)cc1C(=O)Nc1cccc(/C=C\C(=O)O)c1 | 5 | -8 | 3 | 2444 | 11 | 9 | 3.5
Cc1cc(C)n(CC(=O)NC2C(=O)N3C(C(=O)O)=C(CSc4nnc(C)s4)CSC23)n1 (configuration not stated) | -25 | 100* | x | 4263 | x | x | 100*
O=C(COC(=O)c1cccc([N+](=O)[O-])c1)NCc1ccc2c(c1)OCO2 | -1 | 7 | 4 | 2293 | -4 | -1 | -1.8
COc1ccc(OC)c(C2=NOC(C(=O)Nc3cc(C)nn3-c3ccccc3)C2)c1 (configuration not stated) | 1 | -6 | 1 | 5980 | 4 | 4 | -10
C/C(CC(=O)N1CCN(C=O)CC1)=N\NC(=O)c1ccc(Br)cc1 | -3 | x | 6 | 1972 | x | x | x
O=C(CSc1nnc2c(n1)[nH]c1ccccc12)Nc1ccc(S(=O)(=O)Nc2ncccn2)cc1 | -14 | 0 | -2 | 4075 | 11 | 14 | 2.4
O=C(NCC1CCCCC1)c1cc([N+](=O)[O-])ccc1Cl | -16 | 4 | 6 | 6980 | 12 | 9 | 3.7
Cc1cccc(C)c1NC(=O)C(c1ccccc1)N1CCOCC1 (configuration not stated) | -24 | 4 | 5 | 4480 | 9 | 4 | 4.7
NC(=NOC(=O)Cc1ccccc1[N+](=O)[O-])c1cccnc1 | x | 10 | x | x | -2 | 9 | 9.5
CCN=C1S/C(=C\c2ccc(-c3cccc(C(=O)O)c3)o2)C(=O)N1CC | -15 | -10 | -4 | 2001 | 2 | -4 | 10
CCc1ccc2[nH]c(=O)c(CN(CCN(CC)CC)C(=O)NC3CCCCC3)cc2c1 | -6 | x | 2 | 3288 | x | x | x
Cc1cc(NC(=O)NN2CCOCC2)nn1-c1c(Cl)cccc1Cl | -9 | -3 | -3 | 3340 | 3 | 15 | -2.6
CCCCC1(C)NC(=O)N(CC(=O)Nc2ccc(Cl)cc2C)C1=O (configuration not stated) | -16 | 8 | x | 2941 | 8 | 6 | 5.6
Cc1cc(Cl)ccc1NC(=O)CN1C(=O)NC2(CCCC2)C1=O | -11 | 4 | 6 | 3806 | 1 | 3 | 3.6
O=C1Nc2ccccc2N=C(c2ccccc2)C1N1CCOCC1 (configuration not stated) | -18 | -11 | 3 | 21946* | 4 | 12 | 1.8
O=C(Nc1ccc2c(c1)OCO2)C(c1ccccc1)N1CCCCC1 (configuration not stated) | -6 | 9 | -4 | 5157 | 5 | 5 | -1.4
C=CCOc1ccc(C2C(C#N)=C(N)N(N(C)C)C3=C2C(=O)CCC3)cc1 (configuration not stated) | 25 | 5 | -10 | 3483 | 10 | 2 | -2.0
O=S(=O)(c1ccc2c(c1)OCCO2)N1CCN(S(=O)(=O)c2c(F)cc(F)cc2F)CC1 | -2 | -4 | x | 3948 | 5 | 5 | -11
CC(c1ccccc1)N1CC(C(=O)N2CCN(c3ccccc3)CC2)CC1=O (configuration not stated) | 0 | -8 | 2 | 6217 | 1 | 4 | 3.7
COc1ccccc1NC(=O)c1ccc(-c2ccccc2[N+](=O)[O-])o1 | -93 | 2 | -1 | 4370 | 7 | 6 | 13
Cc1ccc2c(c1)N(CC(=O)NCCCN1CCCCC1)C(=O)CO2 | -5 | 0 | 3 | 3727 | 0 | 7 | 4.3
Cc1ccc(NS(=O)(=O)c2c(C)[nH]c(C)c2C(=O)N2CCCC2)cc1Cl | -4 | -9 | 3 | 4624 | -5 | -6 | 2.4
COc1cc(NC(=O)c2nccn2C)cc(C(=O)Nc2cccc(C(F)(F)F)c2)c1 | -45 | 4 | -10 | 3824&3021 | 16 | 5 | 10
CCCOC(=O)c1cc(=O)[nH]c2ccccc12 | -6 | -8 | -1 | 2641 | x | x | -1.0

Further entries
SMILES | PrP UTR inh | ugtP null kill | BJeLR lethal | Autofluor counter | Mtb hypoxia inh | Mtb hypoxia inh growth | Sa RN4220 lethal
Cc1ccn(C(=O)c2cc3c(C)nn(-c4ccccc4)c3s2)n1 | -14 | -1 | -7 | 2973 | x | x | 2.9
Cc1ccc(OCC(=O)Nc2ccc(S(=O)(=O)N(C)C3CCN(C)CC3)cc2)c(C)c1 | -4 | 2 | 0 | 5505 | -4 | -2 | -0.9
CCCn1c(SCC(=O)NCc2ccc3c(c2)OCO3)n[nH]c1=O | -24 | 11 | x | 4133 | 23 | 47 | 3.8
O=[N+]([O-])c1cc(Cl)cc(C2=NCCN2)c1 | -20 | -4 | 4 | u | -25 | -2 | -0.1
O=C(N/N=C/C=C\c1ccccc1[N+](=O)[O-])c1cccs1 | -39 | x | -5 | 1991 | x | x | x
Cc1cc(C(=O)NN=C2CCCc3ccccc32)c(C)o1 | x | -5 | x | x | 4 | 9 | 1.9
O=C(CC1C[C@H](C(=O)N2CCOCC2)[C@@]2(CCC3CCCC3)c3[nH]c4ccccc4c3CCN2C1=O)NCC12CC3CC(CC(C3)C1)C2 (some centres not stated) | -2 | -2 | x | 3713 | -2 | 11 | 2.0
COc1cc(C(=O)OCC(=O)Nc2cc(S(=O)(=O)N3CCOCC3)ccc2C)ccc1OCC(C)C | -30 | 8 | -5 | 6484 | 2 | -1 | 5.0
Cc1ccc2cc(/C=N/NC(=O)CN3CCOCC3)c(Cl)nc2c1 | 7 | x | -12 | 3209 | x | x | x
COc1ccc(CNC(=O)CN(C(=O)c2snc(C(N)=O)c2N)c2cccc(F)c2)cc1 | -24 | 6 | -3 | 3419 | 1 | 8 | 3.3
Cc1ccc(NC(=S)N2CCN(S(=O)(=O)c3ccc(C)cc3)CC2)cc1 | -16 | 0 | x | 5193 | 0 | -1 | -4.6
Cc1ccc(C)c(NC(=O)CN(C)C(=O)c2cccc(S(=O)(=O)N3CCCC3)c2)c1 | -9 | 2 | x | u | -1 | -2 | 0.2
O=C(NN=Cc1ccc(Cl)c([N+](=O)[O-])c1)C1CC1 | x | 2 | x | x | 0 | 2 | 0.4
COc1ccc(CSc2nc(C)[nH]c2[N+](=O)[O-])cc1[N+](=O)[O-] | -17 | 7 | -8 | 4262 | -4 | -5 | 1.0
COc1ccccc1C(=O)Nc1nnc(SCC(=O)NCc2ccco2)s1 | -54 | -1 | -3 | 4352 | 6 | 19 | -5.2
Cc1cc(C(=O)NNC(=O)c2sccc2C)c(C)o1 | -24 | -4 | 0 | 5845 | -9 | -2 | -0.7
COC(=O)C1=C(C)N(c2ccccc2)/C(=C/c2cccs2)C1=O | -30 | -10 | -4 | 11235 | 7 | 6 | 9.9
CCOC(=O)C(=O)NNc1ccccc1C | -15 | 2 | -3 | 2616 | 8 | -6 | 2.3
O=C(NC(=S)Nc1cccc(O)c1)c1cncc(Br)c1 | -10 | 20 | 1 | 4294 | 9 | 5 | 3.1
O=C(NCC(=O)N1CCN(c2ccccc2O)CC1)c1ccc2ccccc2c1 | 4 | -8 | 12 | 4397 | 1 | -3 | 7.0
CC(C)CCN1C(=O)c2ccccc2C1C(=O)NCc1cccnc1 (configuration not stated) | -13 | 6 | -4 | 4249 | 6 | 4 | 3.2
O=c1[nH]c(C2CCN(S(=O)(=O)c3ccccc3C(F)(F)F)CC2)nc2c1nnn2Cc1ccccc1 | 7 | 17 | -9 | 3151 | -13 | 6 | 5.7

Single records (already shown):
CC(C)n1cnnc1SCC(=O)Nc1cccnc1Cl in the list: PrP UTR inh: -12; ugtP null kill: 1; BJeLR lethal: x; Autofluor counter: 2935; Mtb hypoxia inh: 24; Mtb hypoxia inh growth: 36; Sa RN4220 lethal: 2.8
CCOC(=O)C(=O)NNc1ccccc1C in the list: PrP UTR inh: -15; ugtP null kill: 2; BJeLR lethal: -3; Autofluor counter: 2616; Mtb hypoxia inh: 8; Mtb hypoxia inh growth: -6; Sa RN4220 lethal: 2.3

Bioassay records: PubChem, several laboratories
